# GALR2 agonist: agonists of human galanin receptor 2 (GALR2); activation, %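 (tested at 5 µM)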; AID 803; actives 0.48% (n = 140,000); O43603; GALR2-expressing cells, agonist activation read-out;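 active = above mean plus 3 SD of all compounds, about 5% in these data, not always enough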;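 note: 0% = vehicle buffer wells and 100% = reference agonist at full effect; tested in CHO reporter cells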
# Target sequence (O43603 whole entry, looked up): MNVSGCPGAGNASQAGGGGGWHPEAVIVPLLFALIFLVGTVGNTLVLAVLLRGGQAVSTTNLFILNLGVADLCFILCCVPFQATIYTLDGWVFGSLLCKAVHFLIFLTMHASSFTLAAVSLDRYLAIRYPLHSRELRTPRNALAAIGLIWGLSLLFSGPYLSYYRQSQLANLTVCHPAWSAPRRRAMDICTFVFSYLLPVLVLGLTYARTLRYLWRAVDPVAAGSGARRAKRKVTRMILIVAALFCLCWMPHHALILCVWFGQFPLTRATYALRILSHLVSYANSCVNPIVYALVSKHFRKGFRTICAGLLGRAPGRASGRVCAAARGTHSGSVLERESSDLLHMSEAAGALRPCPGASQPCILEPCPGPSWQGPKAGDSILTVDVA
# RGS16-Gao HTS: modulates binding between human RGS16 and Galphao | AID 1441 | actives 0.38% (n = 220,000) | O15492+P09471 | binding response (% of control), % at 10 µM | bead-based flow cytometry RGS16-Galphao binding, fluorescence; actives lie on both sides;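 active = below 25% or above 175%, edge rows of some plates excepted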;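 note: Galphao activated by GDP with aluminum fluoride before binding; 100% = wells without compound and 0% = beads without RGS; some results beyond the cut were filed as inactive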
# Target sequence (O15492 whole entry, looked up): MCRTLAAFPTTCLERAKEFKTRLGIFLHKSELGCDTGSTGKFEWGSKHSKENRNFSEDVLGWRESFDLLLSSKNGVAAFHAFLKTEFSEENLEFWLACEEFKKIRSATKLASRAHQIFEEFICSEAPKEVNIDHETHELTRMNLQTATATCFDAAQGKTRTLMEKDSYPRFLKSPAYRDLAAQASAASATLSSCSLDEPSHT
# Target sequence (P09471 whole entry, looked up): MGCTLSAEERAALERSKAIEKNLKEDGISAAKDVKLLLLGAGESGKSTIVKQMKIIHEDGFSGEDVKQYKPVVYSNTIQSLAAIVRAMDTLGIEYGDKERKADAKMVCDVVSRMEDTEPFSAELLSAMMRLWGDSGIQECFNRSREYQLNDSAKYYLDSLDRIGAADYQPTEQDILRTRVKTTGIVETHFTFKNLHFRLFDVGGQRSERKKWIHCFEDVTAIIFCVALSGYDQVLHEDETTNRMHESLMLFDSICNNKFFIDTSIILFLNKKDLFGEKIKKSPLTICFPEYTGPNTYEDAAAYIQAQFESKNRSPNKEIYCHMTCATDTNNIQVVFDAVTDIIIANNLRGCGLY
# HSV replic up: HSV replication enhancement | HSV replication augmentation in cells, fold increase | maximum fold increase | actives 0.005% (n = 220,000) | AID 1956;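 active = peak rise of 1.5-fold or more in the series; inconclusive = self-fluorescent or not available for retest; tested in PC3 cells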;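 note: first round at 10 µM; read as green reporter fluorescence; hits show the peak of a series up to 25 µM; 1 = signal of infected wells without compound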
# PKD1 inh: blocks activity of human protein kinase D1. actives 0.056% (n = 200,000). Q15139. PKD1 kinase fluorescence polarization assay. inhibition, %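 (about 10 µM by stock and volumes)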;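 active = inhibition of 50% or more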;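 note: controls were vehicle for no effect and a reference inhibitor for full effect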
# Insulin prom inh: TRM-6 insulin promoter activity inhibition; TRM-6 cells (human fetal islet line), insulin promoter-eGFP reporter, imaging; reporter expression induced with tamoxifen; AID 1273; actives 0.9% (n = 130,000); inhibition, % at 2 µM;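 active = inhibition above the mean plus 3 SD, with well images judged a real hit on visual review, cut at about 60% in these data, passing the limit was not always enough; inconclusive = inhibition over the cutoff but images rejected on review; inactive = inhibition not above the cutoff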
# Insulin prom inh cell count: further read-out of Insulin prom inh, marked with its call; normalized cell count, %; measured here: cell count, toxicity; reference of the scale not given here;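 cells exposed to compound for 48 h; stained nuclei by imaging scaled within each plate; lower means fewer cells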
# HSV replic up primary fold: further read-out of HSV replic up, marked with its call; fold increase; compound at 10 µM; measured here: primary screen fold increase 10 uM; tested in PC3 cells;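 GFP signal in the first replicate; 1 = infected wells without compound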
# An asterisk follows results filed as active; i = inactive; ? = inconclusive; . = not tested or not shown. A portion of the library; count on the stated rates, not on these rows.
canonical_smiles	GALR2 agonist	RGS16-Gao HTS	HSV replic up	HSV replic up primary fold	PKD1 inh	Insulin prom inh	Insulin prom inh cell count
Cc1onc(-c2c(Cl)cccc2Cl)c1/C(N)=N/OC(=O)N(C)C	.	91	i	1.1	.	.	.
O=C1NC(=O)N(Cc2ccco2)C(=O)/C1=C\c1ccc(-c2ccc(F)cc2)o1	.	79	i	1	.	.	.
CCOP(=O)(OCC)C(NC(=O)c1cccc2ccccc12)C(Cl)(Cl)Cl (stereo not given)	-1.8	99	i	0.8	-12	.	.
CCCCCOc1ccc(C)cc1CN(CCCl)CCCl	.	102	i	1	.	.	.
CCOC(=O)C1=C(N)OC2=C(C(=O)CCC2)C12C(=O)Nc1ccccc12 (stereo not given)	-3.0	102	i	1.1	9	.	.
Oc1ccc2c3c1O[C@H]1c4oc5ccccc5c4C[C@@]4(O)[C@@H](C2)N(CC2CC2)CC[C@]314	.	96	i	0.92	.	.	.
COc1ccccc1N1CCN(Cc2c(F)cccc2F)CC1	-2.3	100	i	1.1	-9	-40	163
O=C(c1cccnc1)C1CCCN(Cc2nc(-c3cnccn3)no2)C1 (stereo not given)	.	103	i	1.1	.	.	.
CCCOC(=O)COc1cc(C)cc2oc(=O)c3c(c12)CCC3	-0.2	103	i	1.1	-2	50	112
Clc1ccc(COC(Cn2ccnc2)c2ccc(Cl)cc2Cl)c(Cl)c1 (stereo not given)	1.6	101	i	0.79	-6	-45	63
CC(C)CC(=O)NC(Oc1ccc(Cl)cc1)C(Cl)(Cl)Cl (stereo not given)	-2.1	100	i	0.93	6	-77	105
NNC(=O)c1ccc(Cl)cc1	-0.5	101	i	1.1	-1	-29	134
CC(=NCc1ccc2c(c1)OCO2)c1c(O)n(Cc2ccccc2)c(=O)[nH]c1=O	.	96	i	1.1	.	.	.
CSc1ccc(C(=O)C2CCCN(Cc3cc4ccccc4[nH]3)C2)cc1 (stereo not given)	.	97	i	0.95	-4	6	122
CCn1c(O)c(C(c2ccccn2)c2c(O)n(CC)c(=S)[nH]c2=O)c(=O)[nH]c1=S	0.5	105	i	1	-9	-17	94
COc1cc2c(cc1OC)CN(c1ccc([N+](=O)[O-])c(C(F)(F)F)c1)CC2	-0.1	107	i	0.76	-6	15	111
O=C(N/N=C/C1C(=O)NC(=S)N(c2ccccc2)C1=O)c1cc(Br)c(O)c(Br)c1 (stereo not given)	.	103	i	0.74	-7	.	.
CCC(CO)NC(=O)C1C=C2c3cccc4[nH]cc(c34)CC2N(C)C1 (stereo not given)	.	96	?	.	.	.	.
O=c1[nH]c(=S)n(C2CCCCC2)c(O)c1/C=N/N1CCOCC1	.	99	i	1.1	.	.	.
CCOP(=O)(OCC)C(Cc1ccccc1)NC(C)=O (stereo not given)	.	102	i	1	.	.	.
O=[N+]([O-])c1cccc2c([As](=O)(O)O)cccc12	.	91	.	.	.	.	.
COc1ccccc1N1C(=O)NC(=O)C(CCc2ccncc2)(CCc2ccncc2)C1=O	0.5	112	i	0.72	-3	43	106
Cc1ccc2c(c1)CC1(CN2C)C(=O)NC(=O)N(c2cccc(C)c2C)C1=O (stereo not given)	-0.4	100	i	0.93	-8	.	.
CCCCn1c(O)c(C(C)=NCc2cc(OC)cc(OC)c2)c(=O)[nH]c1=O	-0.6	104	i	0.86	1	11	164
COc1ccc(Cn2c(O)c(/C=N/NC(=O)c3ccccc3O)c(=O)[nH]c2=O)cc1	-0.1	97	i	1.1	-4	-12	93
CN1CCC(c2c[nH]c3ccccc23)C1 (stereo not given)	.	99	i	1	.	.	.
Nc1c(C(=O)NCc2ccco2)c2nc3ccccc3nc2n1Cc1ccc(F)cc1	28*	59	i	1.2	-1	-35	79
NC(=S)c1cn(C2OC(CO)C(O)C2O)c2ncnc(N)c12 (stereo not given)	.	128	i	0.61	.	.	.
Cn1c(O)c(C=NCCN2CCOCC2)c(=O)[nH]c1=S	.	106	i	0.85	.	.	.
COc1ccc(C(=O)CN2CCOCC2)cc1F	-1.6	-81	i	0.99	-7	82*	48*
Nc1ccc(N=Nc2ccccc2)cc1	.	107	i	0.92	0	44	146
CCOc1ccc(N2C(=O)NC(=O)/C(=C\c3ccc(N4CCCCC4)o3)C2=O)cc1	-0.8	99	?	.	-11	.	.
Cn1nnc(CC[N+](C)(C)C)n1	.	81	i	0.77	.	.	.
CC(C)n1c(O)c(C=NCc2ccccc2)c(=O)[nH]c1=S	.	95	i	0.98	.	.	.
CC1CCN2c3nc4ccccn4c(=O)c3CC3(C(=O)N(C)C(=O)N(C)C3=O)C2C1 (stereo not given)	-1.5	98	i	0.82	-2	20	57
Cc1cccnc1-n1c(-c2ccco2)nc2ccccc2c1=O	0.0	98	i	1.2	-10	.	.
Cc1ccc(-c2ccc(=O)n(CCC(=O)N3CCC4(CC3)OCCO4)n2)cc1	.	104	i	0.94	1	0	125
CCOC(=O)C1=C(N)OC2=C(C(=O)CCC2)C12C(=O)N(C)c1ccccc12 (stereo not given)	.	95	i	0.89	.	.	.
Cc1nn(C2CCOC(C)(C)C2)c2c1C(c1ccc(OC(C)C)cc1)SCC(=O)N2 (stereo not given)	-0.3	99	i	0.87	-10	-17	33
O=C(NC(=O)c1c(F)cccc1F)Nc1cc(Cl)c(F)c(Cl)c1F	.	83	i	1	.	.	.
NC(=O)CN1CC(c2ccccc2)CC1=O (stereo not given)	-0.2	129	i	0.92	-5	.	.
CCC(=NCc1cccnc1)c1c(O)n(-c2ccccc2)c(=O)[nH]c1=O	.	99	i	1	.	.	.
Nc1c(C(=O)OCC2CCCO2)c2nc3ccccc3nc2n1Cc1cccs1 (stereo not given)	0.4	81	i	0.83	-2	28	85
CCN1CCN(Cc2cc(Br)ccc2O)CC1	-2.0	99	i	0.76	3	38	112
CC(=NCc1ccco1)c1c(O)n(-c2ccccc2)c(=O)[nH]c1=O	-1.7	103	i	0.92	-3	41	122
Fc1ccccc1CCNCc1cccc2ccccc12	-0.2	100	i	0.8	-10	-81	129
CC/C(=N\NC(N)=O)c1c(O)[nH]c(=O)[nH]c1=O	.	104	i	0.79	.	.	.
N=C1c2ccccc2CN1NC(=O)c1ccc(Br)cc1	-0.8	100	i	0.93	-6	8	118
COc1ccc(C(=O)CN2CCCCC2)cc1	.	97	i	1	3	-69	98
CC(=O)C1C2c3ccccc3OC1(C)N=c1s/c(=C/c3cnn(C)c3)c(=O)n12 (stereo not given)	0.0	102	i	0.92	-12	.	.

# Other records follow.
canonical_smiles	GALR2 agonist	RGS16-Gao HTS	HSV replic up	HSV replic up primary fold	PKD1 inh	Insulin prom inh	Insulin prom inh cell count
CCN(CC)CCNCc1nc2ccccc2c(=O)n1-c1ccc(F)cc1	-1.8	106	i	0.95	3	-46	85
O=c1[nH]cc(COCC(F)(F)C(F)(F)C(F)(F)F)c(=O)[nH]1	.	102	i	0.95	-1	.	.
CCc1nc(N2CCNCC2)c(C#N)c2c1CSC(C)(C)C2	0.0	95	.	.	-1	-32	102
C1=C(CCNCc2ccccc2)CCCC1	1.2	97	i	0.88	-9	-11	70
CCN(CC)c1ccc(CNCCc2ccccc2F)cc1	.	97	i	0.81	-4	.	.
O=C1NC(=O)N(Cc2ccc(F)cc2)C(=O)/C1=C\c1ccc(N2CCCC2)cc1	.	99	.	.	.	.	.
O=[N+]([O-])c1cc2c(cc1CNCCc1ccc3c(c1)OCO3)OCO2	-0.7	109	.	.	-2	.	.
C=CCN1C(=O)/C(=C/c2cccs2)C(=O)NC1=S	0.9	104	i	1.1	10	.	.
CC(=O)NNC(=O)CN1C(=O)CN=C(c2ccccc2)c2cc(Br)ccc21	.	98	i	0.93	-6	-20	63
Cc1ccc(S(=O)(=O)Nc2cc(C(=O)N3CCC4(CC3)OCCO4)ccc2N2CCCCC2)cc1	-1.5	107	i	0.94	-7	-29	189
Cc1ccc(C)c(OCC(=O)N2CCN(Cc3ccc4c(c3)OCO4)CC2)c1	.	99	i	1	-7	4	123
CCc1cccc(C)c1NC(=S)N1CC2CC(C1)c1cccc(=O)n1C2 (stereo not given)	0.8	101	i	1.1	6	.	.
COc1ccc(C[C@@H]2c3cc(O)c(OC)cc3CCN2C)cc1O	-1.1	104	i	1.1	-10	29	99
COc1ccc(CCn2c(O)c(C=NCc3ccc4c(c3)OCO4)c(=O)[nH]c2=O)cc1OC	-0.9	87	i	0.75	-3	-12	63
Cc1cccn2c(=O)c3c(nc12)N1CCC(Cc2ccccc2)CC1C1(C3)C(=O)N(C)C(=O)N(C)C1=O (stereo not given)	1.9	55	i	0.88	-6	-14	121
O=C(C(=O)N1CCOCC1)c1cn(Cc2c(F)cccc2Cl)c2ccccc12	.	103	i	0.97	4	.	.
CC(=NCCN1CCCCC1)c1c(O)n(-c2ccc(Cl)cc2)c(=O)[nH]c1=O	-2.7	112	i	0.92	-17	29	106
CC1=C(C(=O)O)N2C(=O)C(NC(=O)Cc3ccccc3)C2SC1 (stereo not given)	.	95	i	0.97	.	.	.
c1ccc(C2=NP(N3CCOCC3)(N3CCOCC3)=NC(N3CCOCC3)=N2)cc1	-1.9	103	i	1	30	29	124
CCN(CC)CCN=C(C)c1c(O)n(-c2ccccc2OC)c(=O)[nH]c1=O	-0.1	215	i	1	-4	-27	135
Cc1cc(C(=O)N2CCC3(CC2)OCCO3)cs1	-3.1	103	i	0.95	2	4	103
COCCCn1c(N)c(C(=O)Nc2ccccc2)c2nc3ccccc3nc21	.	100	i	0.76	.	.	.
CCN1CCC2(CC1)NC(=O)c1ccccc1O2	.	96	i	1.1	8	.	.
CN1CCN(c2nc(N(C)C)oc(=O)c2C#N)CC1	-2.8	102	i	1	-1	-47	120
ON1C2CCCCC2N(O)C1c1ccccc1F (stereo not given)	-0.2	96	i	0.94	-3	-5	172

# Next part; the last six above are carried over.
canonical_smiles	GALR2 agonist	RGS16-Gao HTS	HSV replic up	HSV replic up primary fold	PKD1 inh	Insulin prom inh	Insulin prom inh cell count
CCN(CC)CCN=C(C)c1c(O)n(-c2ccccc2OC)c(=O)[nH]c1=O	-0.1	215	i	1	-4	-27	135
Cc1cc(C(=O)N2CCC3(CC2)OCCO3)cs1	-3.1	103	i	0.95	2	4	103
COCCCn1c(N)c(C(=O)Nc2ccccc2)c2nc3ccccc3nc21	.	100	i	0.76	.	.	.
CCN1CCC2(CC1)NC(=O)c1ccccc1O2	.	96	i	1.1	8	.	.
CN1CCN(c2nc(N(C)C)oc(=O)c2C#N)CC1	-2.8	102	i	1	-1	-47	120
ON1C2CCCCC2N(O)C1c1ccccc1F (stereo not given)	-0.2	96	i	0.94	-3	-5	172
Cc1ccccc1-c1nc(CS(=O)CC(=O)N2CCC3(CC2)OCCO3)c(C)o1 (stereo not given)	-1.8	99	i	0.89	-9	31	79
COC1=CCC2([N+](=O)[O-])CN(C)CC1([N+](=O)[O-])C2 (stereo not given)	-0.8	108	i	0.96	-4	.	.
c1ccc2c(CN3CCCCC3)c[nH]c2c1	.	104	i	0.92	.	.	.
COc1ccc(N=C(C)c2c(O)n(C)c(=O)n(C)c2=O)c(OC)c1	-0.4	103	i	0.91	0	.	.
O=Cc1c(C(=O)O)n(Cc2ccc(Cl)cc2)c2ccccc12	-1.2	106	?	.	-17	-59	132
C#CC(CC)(CC)NC(=O)Nc1ccc(OCC)cc1	.	103	i	1	-10	-10	120
O=C(c1cccc(N2CCCC2=O)c1)N1CCC2(CC1)OCCO2	-0.7	80	i	1	-4	11	68
COc1ccc(N2C(=O)CC(N3CCC(n4c(=O)[nH]c5ccccc54)CC3)C2=O)cc1 (stereo not given)	-1.2	100	i	0.93	-5	-27	129

# 3 entries out of the list, ordered by SMILES length, lowest first.
canonical_smiles	GALR2 agonist	RGS16-Gao HTS	HSV replic up	HSV replic up primary fold	PKD1 inh	Insulin prom inh	Insulin prom inh cell count
c1ccc2c(CN3CCCCC3)c[nH]c2c1	.	104	i	0.92	.	.	.
COC1=CCC2([N+](=O)[O-])CN(C)CC1([N+](=O)[O-])C2 (stereo not given)	-0.8	108	i	0.96	-4	.	.
Cc1ccccc1-c1nc(CS(=O)CC(=O)N2CCC3(CC2)OCCO3)c(C)o1 (stereo not given)	-1.8	99	i	0.89	-9	31	79
